# Screening results from PubChem.
# Rango complex inh: inhibitors of Rango-importin beta complex formation; Q14974; Rango CFP/YFP FRET sensor + importin beta, 45 min; Potency, µM (top dose mostly 92.2 µM), without a hit: at the top dose inhibition of complex formation; 340,000 tested, 0.031% active; active = rising FRET ratio curve, often small or poorly fitted; inconclusive = mostly compound fluorescence or quenching in the first reads; inactive = flat curves in all reads;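 also: potency is read from the fitted curve at half-maximal effect; 0% = DMSO wells and 100% = buffer wells lacking importin beta; nearly all actives have a fitted effect of over 15% in size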
# Target sequence (Q14974 whole entry, looked up): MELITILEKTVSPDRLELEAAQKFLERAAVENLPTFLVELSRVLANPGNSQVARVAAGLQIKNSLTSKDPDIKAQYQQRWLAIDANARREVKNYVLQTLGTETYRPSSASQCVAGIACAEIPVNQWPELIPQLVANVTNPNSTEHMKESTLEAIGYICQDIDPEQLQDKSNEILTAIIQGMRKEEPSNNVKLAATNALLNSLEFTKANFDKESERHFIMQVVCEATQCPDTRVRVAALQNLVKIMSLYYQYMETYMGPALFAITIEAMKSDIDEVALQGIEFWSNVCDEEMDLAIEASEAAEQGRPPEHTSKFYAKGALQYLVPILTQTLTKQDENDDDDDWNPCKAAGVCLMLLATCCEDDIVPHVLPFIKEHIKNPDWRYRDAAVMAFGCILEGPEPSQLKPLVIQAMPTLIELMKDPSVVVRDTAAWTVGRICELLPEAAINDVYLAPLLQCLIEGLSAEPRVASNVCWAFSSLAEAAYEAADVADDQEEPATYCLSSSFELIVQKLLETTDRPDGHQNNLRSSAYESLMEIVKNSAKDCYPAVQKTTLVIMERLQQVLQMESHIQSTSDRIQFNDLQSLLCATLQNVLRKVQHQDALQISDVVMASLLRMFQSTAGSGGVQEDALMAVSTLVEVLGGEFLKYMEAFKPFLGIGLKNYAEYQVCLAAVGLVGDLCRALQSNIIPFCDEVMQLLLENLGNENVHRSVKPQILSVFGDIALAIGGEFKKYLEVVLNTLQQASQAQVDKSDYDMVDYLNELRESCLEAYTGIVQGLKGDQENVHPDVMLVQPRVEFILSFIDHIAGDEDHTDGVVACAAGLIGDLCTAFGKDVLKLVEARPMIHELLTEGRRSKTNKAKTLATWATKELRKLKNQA
#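 FRET biosensor Rango (snurportin 1 IBB between N-terminal EYFP and C-terminal Cerulean), 50 nM in PBS/1 mM DTT/0.02% Tween-20/0.1% BSA, preincubated 5 min RT with compound; 0.125 microM importin beta added, 45 min RT, CFP/YFP FRET ratio read.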
# miR-21 reporter: miR-21 reporter, rising signal | HeLa miR-21 FLuc reporter, luciferase, 48 h | Potency, µM (top dose mostly 38.3 µM), inactives show at the highest dose reporter change, positive = more light | 340,000 tested, under 10 active | AID 2288; active = well fitted rising curve with a large enough effect; inconclusive = small, poorly fitted or top-dose-only effect; inactive = no such curve, though single readings can be large or run the other way;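 also: % of control where 0% means no effect; miR-21 action dims this reporter so a rising signal means less miR-21 action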
#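 HeLa cells stably expressing CMV-driven firefly luciferase with a downstream miR-21 binding sequence, endogenously expressing miR-21, were treated with titrations (up to about 40uM final) for 48 hours at 37 degree Celsius. Luciferase luminescence was read after lysis.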
# Rango release inh: inhibitors of RanGTP-induced Rango-importin beta complex dissociation; Biochemical FRET Rango-importin beta, RanGTP-induced dissociation; Potency, µM (titrated, usually from 46.1 µM), for inactives: at the top dose activity change, negative = inhibition; 340,000 tested, 0.071% active; AID 540253; O95149+P62826; active means falling FRET ratio curve, often poorly fitted, with flat reads before Ran was added; inconclusive means other falling curves, or compound fluorescence or quenching; inactive means flat or rising ratio curve;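 also: potency is read from the fitted curve at half-maximal effect; % of control where 0% means no effect; nearly all actives have a fitted effect of over 45% in size; -100% = wells without RanGTP and RCC1; the record marks most hits as doubtful in a second field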
#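 Compounds preincubate 5 min with complex of recombinant Rango and importin beta in PBS with 1 mM DTT. Ran (0.6 uM) loaded with 2 mM GTP plus 0.2 uM RCC1 starts dissociation; FRET is recorded 45 min later.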
# GLA inh pH 4.5: alpha-galactosidase A (human) inhibition, pH 4.5; purified enzyme, 4-MU-alpha-Gal fluorescence, pH 4.5; activity change, negative = inhibition, % at 105 µM; 230,000 tested, under 10 active; inconclusive = small, poorly fitted or top-dose-only inhibition, or a rising curve; inactive = flat fitted curve, though single readings scatter; no compound was filed as active;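 also: 0% = full activity with enzyme and -100% = basal without enzyme; dose as in the result columns while the protocol names 77 µM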
# The depositor's hits bear a star; ? = inconclusive; . = not tested or not shown; & = joins results of further samples.
Rango complex inh	miR-21 reporter	Rango release inh	GLA inh pH 4.5	SMILES
2.9%	0%	?	-1	O=P(CO)(Cc1ccccc1)Cc1ccccc1
0.5%	-6%	12%	-13	CCN(CCO)C(=O)CC(c1ccccc1)c1cc(Br)ccc1O (stereo unspecified)
-0.6%	-11%	1%	.	COc1ccc(NC(=O)C2CCN(C(=O)[C@@H]3Cc4ccccc4CN3C(=O)OC(C)(C)C)CC2)cc1
-1.2%	2%	-9%	-4	CCCCCc1nc2c(c3c1CCCC3)CCCC2
?	-4%	-10%	.	CSCC[C@H](NC(=O)N1CCn2c1nc1ccccc12)C(=O)NC1CC1
.	-6%	.	-3	Cc1ccc(CN2C(=O)/C(=C3\SC(N4CCOCC4)=NC3=O)c3cc(Br)ccc32)cc1
-0.3%	5%	6%	-7	COCCn1c(CN(Cc2ccccc2)Cc2ccccc2)nc2c1c(=O)n(C)c(=O)n2C
1.9%	-19%	-23%	0	Cc1ccccc1NC(=O)/C(C#N)=C\c1ccsc1
?	-4%	0%	.	CCN(C(=O)c1cc2c(s1)-c1ccccc1S(=O)(=O)C2)c1cc(OC)ccc1OC
-3.5%	-9%	-3%	2	O=C(Cn1cnc2c(nnn2-c2ccccc2)c1=O)NCc1ccco1
0.9%	-4%	-8%	6	CC(C)NS(=O)(=O)c1ccc(OCC(=O)Nc2cccc3ccccc23)cc1
-0.6%	-24%	0%	-1	CCOC(=O)c1sc(-c2ccccc2)cc1NC(=O)CSc1nnnn1C
-1.2%	.	1%	.	O=C1c2cccc3cccc(c23)C(=O)N1CC1CCN(S(=O)(=O)c2ccccc2)CC1
?	-11%	?	-7	COc1cc2nc(/C=C/c3ccc(N(C)C)cc3)sc2cc1SC
-4.9%	0%	8%	.	CCOCCCN(C(=O)Cn1nnc(-c2ccc(C)o2)n1)C(C(=O)NC1CCCC1)c1ccc(C)o1 (stereo unspecified)

# Quoted at random: 7 compounds from above
Rango complex inh	miR-21 reporter	Rango release inh	GLA inh pH 4.5	SMILES
-3.5%	-9%	-3%	2	O=C(Cn1cnc2c(nnn2-c2ccccc2)c1=O)NCc1ccco1
0.9%	-4%	-8%	6	CC(C)NS(=O)(=O)c1ccc(OCC(=O)Nc2cccc3ccccc23)cc1
-4.9%	0%	8%	.	CCOCCCN(C(=O)Cn1nnc(-c2ccc(C)o2)n1)C(C(=O)NC1CCCC1)c1ccc(C)o1 (stereo unspecified)
?	-4%	0%	.	CCN(C(=O)c1cc2c(s1)-c1ccccc1S(=O)(=O)C2)c1cc(OC)ccc1OC
1.9%	-19%	-23%	0	Cc1ccccc1NC(=O)/C(C#N)=C\c1ccsc1
-0.3%	5%	6%	-7	COCCn1c(CN(Cc2ccccc2)Cc2ccccc2)nc2c1c(=O)n(C)c(=O)n2C
-0.6%	-24%	0%	-1	CCOC(=O)c1sc(-c2ccccc2)cc1NC(=O)CSc1nnnn1C

# (cont.)
Rango complex inh	miR-21 reporter	Rango release inh	GLA inh pH 4.5	SMILES
1.4%	.	-7%	.	N#Cc1ccccc1NC(=O)C(=O)NCC1CCCN1S(=O)(=O)c1cccs1 (stereo unspecified)
.	-1%	.	2	O=C(CNc1cc(S(=O)(=O)N2CCCC2)ccc1OCC(F)(F)F)Nc1cc(Cl)cc(Cl)c1
0.3%	-20%	0%	-1	COC(=O)c1sc(NC(=S)NC(=O)c2ccccc2)nc1C
-2.7%	-3%	7%	-6	CCC(C)NC(=O)c1ccc(-n2c(=S)[nH]c3ccccc3c2=O)cc1 (stereo unspecified)
0.0%	-19%	-5%	-7	CSc1cccc(NC(=O)c2nnn(Cc3ccccc3)c2N)c1
-6.1%	-23%	-17%	-1&6	CC[C@H](C)[C@@H](NC(=O)O[C@@H]1C(=O)c2cc(Br)ccc2O[C@H]1c1cccc(OC)c1)C(=O)OC
-2.4%	.	2%	.	COC(=O)[C@]1(C)N[C@H](c2ccc(SC3CCCCC3)c(OC)c2)[C@@H]2C(=O)N(C)C(=O)[C@@H]21
-2.9%	1%	-7%	-12	O=C(Nc1ccccc1)C1(c2ccccc2)CC1(Cl)Cl (stereo unspecified)
2.7%	-5%	-19%	7	CCOCCCNCc1cc(Br)ccc1OCC
2.5%	1%	3%	.	Cc1ccc(C)c(N2CCN(C(=O)Cn3ncn4cccc4c3=O)CC2)c1
2.3%	1%&8%	-8%	3	O=C(CSc1nc2c([nH]c3ccccc32)c(=O)n1-c1ccccc1)N1CCOCC1
0.9%	-3%	-8%	1	N#C/C(=C\c1ccc(C(=O)O)cc1)c1ccccn1
4.3%	-4%	-1%	0	COc1cc(CNCCc2ccc(S(N)(=O)=O)cc2)ccc1OCC(=O)N1CCCCC1
2.4%	.	12%	.	CCN1CCN(c2ccc(S(=O)(=O)N3CCOCC3)cc2NC(=O)C(C)Oc2cccc(Cl)c2)CC1 (stereo unspecified)
-3.0%	2%	2%	8	Nc1nnnn1/N=C/c1cccs1
-1.4%	-44%	0%	.	COc1cc(/C=C(\C#N)C(=O)Nc2cccc(C(=O)O)c2)ccc1OCc1ccc(F)cc1
?	.	0%	.	CCc1cc(C(=O)Nc2ccc(OC)nc2)sc1C
3.5%	3%	9%	5	COc1cccc(/C=C/C(=O)OCC(=O)Nc2cccc(S(=O)(=O)N(C)C)c2)c1
-0.8%	3%	-7%	1	O=C(CCCC(=O)OCC(F)(F)C(F)F)Nc1ccc(NC(=O)CCCC(=O)OCC(F)(F)C(F)F)cc1
-2.3%	-2%	10%	5	Cc1ccccc1NCc1nnc2n1CCCCC2
1.2%	-2%	-13%	.	Nc1nonc1-n1nnc(C(=O)N/N=C/c2ccco2)c1-c1ccccc1
5.5%	-21%	-9%	4	COc1ccc(C(=O)Cc2cc(OC)c(OC)cc2[N+](=O)[O-])c(OC)c1
0.4%	-1%	0%	.	CC(=O)NC(Cc1c[nH]c2ccccc12)C(=O)NCCc1ccccc1 (stereo unspecified)
5.7%	-21%	-9%	.	CCc1ccc(OCC(=O)Nc2ccc3c(c2)OCCO3)cc1
3.3%	8%	4%	-5	CCOCc1c(C(=O)NC2CCCCCC2)oc2ccccc12
1.6%	-7%	-6%	3	CN(Cc1ccccn1)Cc1nc(Cc2ccccc2Cl)no1
-0.8%	9%	-4%	.	CC(NCC(=O)Nc1cc(Cl)cc(Cl)c1)c1ccccc1 (stereo unspecified)
?	-58%	-15%	-12	CC(=O)N1N=C(c2ccccc2)CC1c1cn(C)c2ccccc12 (stereo unspecified)
-2.9%	-3%	-14%	-7	CN(C(=O)COC(=O)c1cc(Br)c(Br)s1)C1CCS(=O)(=O)C1 (stereo unspecified)
2.7%	-5%	14%	0	C=CCOc1ccc2oc(=O)cc(C)c2c1

# The final 2 entries of the section above open the next one.
Rango complex inh	miR-21 reporter	Rango release inh	GLA inh pH 4.5	SMILES
-2.9%	-3%	-14%	-7	CN(C(=O)COC(=O)c1cc(Br)c(Br)s1)C1CCS(=O)(=O)C1 (stereo unspecified)
2.7%	-5%	14%	0	C=CCOc1ccc2oc(=O)cc(C)c2c1
0.0%	?	-7%	.	CC1(C)C2CCC1(C)C(OCC[N+](C)(C)CC(=O)OC1CCCCC1)C2 (stereo unspecified)
?	0%	-18%	.	CC(C)(C)CN1CCN(Cc2cc3ccccc3[nH]2)CC1CCO (stereo unspecified)
-0.1%	-4%	5%	.	O=C1CSC(=Nc2ccc(Cl)cc2)N1
1.8%	-2%	0%	6	O=C(Cc1csc(Nc2nc(=S)[nH]c3ccccc23)n1)N1CCN(c2cccc(C(F)(F)F)c2)CC1
-1.1%	3%	-1%	2	Cc1ccc(C(=O)Nc2cc(-c3ccn[nH]3)c(C)n(N)c2=O)cc1
-3.6%	-7%	?	-7	COc1ccccc1N1CCN(C(=O)c2ccc(N3CCCC3=O)cc2)CC1
?	.	8%	.	NS(=O)(=O)c1ccc(CCNC(=O)COC(=O)C2COc3ccccc3O2)cc1 (stereo unspecified)
1.7%	-2%	4%	.	Cc1ccsc1/C=N/NC(=O)c1nnn(-c2nonc2N)c1CSc1ccccc1
13%	4%	1%	.	CCC(C(=O)NCCCN1CCN(CCCNC(=O)C(CC)c2ccccc2)CC1)c1ccccc1 (stereo unspecified)
-3.5%	-6%	-11%	11	O=C(NCCc1c[nH]c2ccccc12)/C(=C\c1ccco1)NC(=O)c1ccco1
-2.3%	-7%	17%	6	CSc1nc(N)cc(=O)[nH]1
1.7%	-3%	0%	11	CCOC(=O)N1CCC(NS(=O)(=O)c2cc3c(cc2C)NC(=O)CO3)CC1
?	2%	-2%	0	COc1ccc(Cl)cc1NC(=O)COC(C)=O
?	4%	-15%	-10	N#Cc1c(N2CCCCC2)nc(N)c2c(N)nc3c(c12)CC(c1ccccc1)O3 (stereo unspecified)
-0.8%	-22%	1%	-1	Cn1c(CO)cnc1SCc1ccc(Cl)cc1
-2.2%	-6%	1%	10	CCn1c(-c2cccc(Br)c2)n[nH]c1=S
?	0%	-16%	.	O=C(NC(=S)NNC(=O)c1ccco1)c1ccccc1
-0.3%	5%	-14%	3	COc1cc(C)cc(C(=O)O)c1C1=C(O)c2cccc(O)c2C(=O)C1=O
-2.4%	0%	-10%	-2	COc1ccc(NC(=O)CN(Cc2ccccc2)S(C)(=O)=O)cc1
0.1%	-10%	-11%	0	CCOc1ccccc1NC(=O)c1ccc(OCC)c([N+](=O)[O-])c1
0.2%	.	1%	.	O=C(OCc1nnc(-c2ccc([N+](=O)[O-])cc2)o1)C1CCN(C(=O)c2ccc(F)cc2)CC1
?	-12%	?	-1	N#CC1=C(N)Oc2c(ccc3ccccc23)C1c1ccsc1 (stereo unspecified)
-1.6%	-2%	-3%	.	CC(=O)c1cc2c(cc1NC(=O)Cn1nc(-c3ccc(C)cc3)ccc1=O)OCO2
-3.3%	-5%	9%	-9	CCOC(=O)c1c(C)nc(C)c(C(=O)OCC)c1-c1cccnc1
-2.8%	-6%	12%	1	COc1ccc(F)cc1S(=O)(=O)NC1CCCCCC1
?	-2%	20%	5	CCC(C)NC(=S)Nc1ccccc1OC (stereo unspecified)
2.2%	.	0%	.	Cc1ccccc1-c1cc(C(=O)NCc2cccs2)nn1CC1CC(c2cccc([N+](=O)[O-])c2)=NO1 (stereo unspecified)
2.7%	-3%	-13%	3	CC(=O)Nc1ccc(NC(=O)CCCCCN2C(=O)c3ccccc3C2=O)cc1
0.5%	-19%	8%	-2	Cc1ccc(Sc2ccncc2S(N)(=O)=O)cc1
4.2%	-7%	-4%	.	COc1cc([N+](=O)[O-])ccc1NC(=O)NN1CCN(C)CC1

# Part of the list above, reformatted:
> O=C(NC(=S)NNC(=O)c1ccco1)c1ccccc1
- Rango complex inh: ?
- miR-21 reporter: 0%
- Rango release inh: -16%
- GLA inh pH 4.5: .

> O=C(OCc1nnc(-c2ccc([N+](=O)[O-])cc2)o1)C1CCN(C(=O)c2ccc(F)cc2)CC1
- Rango complex inh: 0.2%
- miR-21 reporter: .
- Rango release inh: 1%
- GLA inh pH 4.5: .

# Going on with the list:
Rango complex inh	miR-21 reporter	Rango release inh	GLA inh pH 4.5	SMILES
-1.4%	-10%	9%	5	COc1ccc(-c2ccc(=O)n(CC(=O)NCc3ccco3)n2)cc1
0.7%	.	-3%	.	COc1ccc(NC(=O)N(C)C[C@H]2Oc3ccc(NC(=O)Nc4ccc(C(F)(F)F)cc4)cc3C(=O)N([C@H](C)CO)C[C@@H]2C)cc1
-4.5%	-4%	1%	8	COc1ccc2c(c1)c(=O)oc1cc(OCC(=O)N3CCCC(C)C3)ccc12 (stereo unspecified)
-1.6%	.	-11%	.	N#Cc1ccccc1OCC(=O)OCC(=O)c1c[nH]c2ccccc12
4.9%	-57%	0%	6	O=C(Nc1ccc2oc(-c3ccccc3)nc2c1)c1ccco1
?	?	?	.	CC(NC(=O)/C(C#N)=C/c1ccc([N+](=O)[O-])o1)c1ccccc1 (stereo unspecified)
-2.8%	-8%	-5%	0	COc1cc(NC(=O)c2ccccc2Cl)c(OC)cc1NC(=O)CN1CCOCC1

# Only part of the results is shown, so the mix of outcomes need not match the whole.
